PAFAH2 inh = PAFAH2 (human) inhibition; Q99487; AID 492956; recombinant PAFAH2, FP-rhodamine activity probe, fluorescence polarization; inhibition, % at 3.39 µM; 340,000 compounds, 0.99% hits;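 active = inhibition above the mean over all tested compounds plus 3 SD, cut at about 30% in these data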;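 also: inhibitors block probe labeling of enzyme so polarization drops; 0% = enzyme with DMSO and 100% = wells lacking PAFAH2 protein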
LYPLA1 counter = blocks human lysophospholipase 1, a PME1 counter-screen; O75608; recombinant LYPLA1, FP-Rh probe fluorescence polarization; inhibition, % at 5.9 µM; 320,000 compounds, 0.16% hits;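 active = inhibition above the mean of all tested compounds plus 3 SD, set per campaign, cut at about 14% in these data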;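 also: inhibitors block serine hydrolase probe labeling of LYPLA1 so polarization falls; 0% = enzyme with DMSO and 100% = wells lacking LYPLA1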
Target sequence (O75608 whole entry, looked up): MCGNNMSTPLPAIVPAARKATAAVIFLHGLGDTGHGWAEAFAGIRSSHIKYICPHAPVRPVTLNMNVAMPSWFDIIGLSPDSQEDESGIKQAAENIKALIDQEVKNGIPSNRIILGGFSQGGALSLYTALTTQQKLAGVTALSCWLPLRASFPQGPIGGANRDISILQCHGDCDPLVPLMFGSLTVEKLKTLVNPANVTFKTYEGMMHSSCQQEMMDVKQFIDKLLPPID
PREPL inhibitor = inhibitors of human prolyl oligopeptidase-like enzyme PREPL; Q4J6C6; recombinant PREPL, fluorescence polarization activity-based probe; inhibition, % at 5.96 µM; 320,000 compounds, 0.68% hits; AID 2751; in the data active = inhibition above about 43%;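 also: 0% = enzyme with DMSO and 100% = wells lacking enzyme; many of its hits are not listed in these tables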
GSTO1 inh = counter-screen for RBBP9 inhibitors: inhibitors of human GSTO1. P78417. recombinant GSTO1, activity-based probe fluorescence polarization. inhibition, % at 5.96 µM. 300,000 compounds, 1.1% hits. AID 1974;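 active = inhibition above the campaign mean inhibition plus 3 SD, cut at about 35% in these data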;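 also: 0% = GSTO1-1 with DMSO and 100% = wells lacking GSTO1-1 enzyme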
LYPLA2 inh = blocks human lysophospholipase 2, a PME1 counter-screen. O95372. inhibition, % at 5.9 µM. 320,000 compounds, 0.38% hits. recombinant LYPLA2, FP-Rh probe fluorescence polarization;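 active = inhibition above the screen-wide mean plus 3 SD, limit set per campaign, cut at about 26% in these data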;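 also: 0% = LYPLA2 with DMSO and 100% = wells lacking LYPLA2 enzyme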
Target sequence (O95372 whole entry, looked up): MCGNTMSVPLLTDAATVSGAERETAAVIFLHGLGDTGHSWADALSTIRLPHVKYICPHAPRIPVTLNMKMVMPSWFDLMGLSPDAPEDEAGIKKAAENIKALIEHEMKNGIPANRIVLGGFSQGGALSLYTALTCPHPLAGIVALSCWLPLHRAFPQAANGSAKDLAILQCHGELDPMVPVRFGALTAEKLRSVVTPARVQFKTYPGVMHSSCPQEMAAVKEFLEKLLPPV
PAFAH1B3 inh = PAFAH1B3 (human) inhibition; Q15102; recombinant PAFAH1B3, FP-rhodamine probe, fluorescence polarization; inhibition, % at 3.39 µM; 340,000 compounds, 0.28% hits;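 active = inhibition above the screen-wide average of all tested compounds plus 3 SD, cut at about 25% in these data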;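 also: 0% = enzyme with DMSO only and 100% = wells lacking PAFAH1B3 protein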
pPAFAH FP inh = pPAFAH (human) enzyme inhibition; inhibition, % at 3.39 µM; 330,000 compounds, 1.5% hits; Q13093; recombinant pPAFAH, FP-rhodamine probe fluorescence polarization;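 active = inhibition above the mean inhibition across the screen plus 3 SD, cut at about 25% in these data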;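 also: inhibitors block binding of the rhodamine activity-based probe so polarization drops; 0% = enzyme with DMSO and 100% = wells lacking pPAFAH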
Target sequence (Q13093 whole entry, looked up): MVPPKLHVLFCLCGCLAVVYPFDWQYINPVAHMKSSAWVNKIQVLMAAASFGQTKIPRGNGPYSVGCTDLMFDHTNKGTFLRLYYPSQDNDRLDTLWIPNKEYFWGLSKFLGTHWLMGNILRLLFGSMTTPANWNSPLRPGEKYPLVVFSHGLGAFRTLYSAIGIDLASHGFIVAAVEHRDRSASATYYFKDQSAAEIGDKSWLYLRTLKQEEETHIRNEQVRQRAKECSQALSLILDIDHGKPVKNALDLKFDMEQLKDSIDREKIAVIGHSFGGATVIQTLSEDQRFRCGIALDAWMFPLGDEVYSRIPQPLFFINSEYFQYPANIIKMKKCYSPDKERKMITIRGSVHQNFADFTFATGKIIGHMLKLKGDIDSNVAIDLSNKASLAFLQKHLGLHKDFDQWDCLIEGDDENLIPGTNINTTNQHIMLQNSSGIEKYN
PAD4 FP inh = inhibitors of human PAD4; Q9UM07; recombinant PAD4, RCA probe fluorescence polarization; inhibition, % at 6.36 µM; 330,000 compounds, 0.41% hits; AID 485272;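 active = percent inhibition above a cutoff equal to the mean of all tested compounds plus 3 SD, cut at about 15% in these data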;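 also: 0% = PAD4 with RCA probe and DMSO and 100% = probe without PAD4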
* marks the source's active call; other numbers are inactive results; · = no result given. Not all compounds are listed, so the mix of outcomes need not match the whole.

Below each compound – PAFAH2 inh	LYPLA2 inh	pPAFAH FP inh	PREPL inhibitor	PAD4 FP inh	GSTO1 inh	LYPLA1 counter	PAFAH1B3 inh
> CCCCOc1ccc(S(=O)(=O)NNC(=O)C2Cc3c(ccc4ccccc34)O2)cc1 (stereo unspecified)
 : -3	-12	8	-1	-7	-3	-4	5
> O=C(COC(=O)CSc1ccc(F)cc1)NCC1CCCCC1
 : -8	0	19	7	-3	6	2	1
> Cc1cc(=O)[nH]c(SCC2(O)C3CC4CC(C3)CC2C4)n1 (stereo unspecified)
 : 15	10	-3	8	0	-7	3	1
> CCOC(=O)c1nc(C)sc1-c1ccnn1S(=O)(=O)c1ccc(C)cc1
 : 5	4	1	3	3	10	2	-4
> O=C(O)c1ccccc1S(=O)(=O)NCC(O)COc1ccc(Br)cc1 (stereo unspecified)
 : 8	12	-1	-6	-3	-5	0	8
> CS(=O)(=O)Nc1ccc(C(=O)NCCSc2ccc(Cl)cc2)cc1
 : 6	2	4	-13	-4	4	2	10
> Cc1nnc(SCC(=O)OC2CC(C)CCC2C(C)C)[nH]c1=O (stereo unspecified)
 : -8	-4	1	4	-1	5	0	3
> N#Cc1c(NC(=O)CSc2ncn[nH]2)sc2c1CCCC2
 : -7	4	8	-28	-5	-5	1	4
> Cc1csc(SCC(=O)Nc2sc3c(c2C#N)CCC3)n1
 : 8	1	10	-1	2	5	-3	5
> O=C(O)CC(NC(=O)CCC1CCCCC1)c1cc([N+](=O)[O-])ccc1Cl (stereo unspecified)
 : 4	0	2	4	-3	-2	0	8
> CCC(Cc1ccccc1)NS(=O)(=O)c1ccc2c(c1)NC(=O)C(C)S2 (stereo unspecified)
 : 3	4	13	-14	-2	8	-1	0
> COc1ccc(/C(N)=N/OC(=O)CSc2ccc(C)cc2)cc1
 : -4	-1	8	2	3	3	-1	2
> C=CCN(c1ccccc1)S(=O)(=O)c1ccc2c(c1)NC(=O)C(C)C(=O)N2 (stereo unspecified)
 : 15	-6	1	6	2	8	-2	4
> O=C(CCSc1ccc(Br)cc1)Nc1cccnc1
 : 2	-2	4	-6	0	4	-2	1
> O=C(O)c1cnn(-c2nc(-c3cccc(F)c3)cs2)c1C(F)(F)F
 : 7	-2	3	-6	-1	10	-3	18

Whole records from above. Order of values: PAFAH2 inh, LYPLA2 inh, pPAFAH FP inh, PREPL inhibitor, PAD4 FP inh, GSTO1 inh, LYPLA1 counter, PAFAH1B3 inh
Record of COc1ccc(/C(N)=N/OC(=O)CSc2ccc(C)cc2)cc1 : -4, -1, 8, 2, 3, 3, -1, 2
Record of O=C(O)c1cnn(-c2nc(-c3cccc(F)c3)cs2)c1C(F)(F)F : 7, -2, 3, -6, -1, 10, -3, 18
Record of CCC(Cc1ccccc1)NS(=O)(=O)c1ccc2c(c1)NC(=O)C(C)S2 (stereo unspecified) : 3, 4, 13, -14, -2, 8, -1, 0
Record of O=C(O)c1ccccc1S(=O)(=O)NCC(O)COc1ccc(Br)cc1 (stereo unspecified) : 8, 12, -1, -6, -3, -5, 0, 8
Record of CCOC(=O)c1nc(C)sc1-c1ccnn1S(=O)(=O)c1ccc(C)cc1 : 5, 4, 1, 3, 3, 10, 2, -4

Continued.
Below each compound – PAFAH2 inh	LYPLA2 inh	pPAFAH FP inh	PREPL inhibitor	PAD4 FP inh	GSTO1 inh	LYPLA1 counter	PAFAH1B3 inh
> O=C(O)c1cc(S(=O)(=O)NC2CCCc3ccccc32)ccc1O (stereo unspecified)
 : 18	-1	0	-2	4	6	3	2
> O=C(NC1CCCCC1)C(c1cccs1)N(C(=O)Cc1c[nH]c2ccccc12)c1ccc(F)cc1 (stereo unspecified)
 : -8	-2	4	19	-2	-1	-2	7
> COc1ccc(-c2csc(-n3ncc(C(=O)O)c3C(F)(F)F)n2)cc1
 : 1	8	-2	3	-9	3	2	7
> O=C(COC(=O)CSc1ccc(Cl)cc1)Nc1ccccc1
 : 3	1	14	0	-4	·	0	-1
> COc1ccc(CNC(=O)C2(c3ccc(Cl)cc3)CC2)cc1
 : -12	-3	2	-17	-8	11	-1	-1
> Cc1ccc(S(=O)(=O)N2[C@@H](c3ccc(Cl)cc3)C(C(=O)O)=CC[C@H]2c2cccs2)cc1
 : 0	-8	2	12	-1	0	-5	3
> O=C1NC(=O)/C(=C\c2ccc(Sc3ccc(Cl)cc3)o2)N1
 : 0	12	5	6	3	8	2	4
> O=C(OCC(=O)N1CCN(S(=O)(=O)c2ccc(Cl)cc2)CC1)c1cccc(OC(F)F)c1
 : 3	1	11	9	-4	-6	-1	3
> Cn1c(C(=O)O)cc2c(=O)n3ccccc3nc21
 : -2	2	-3	3	0	4	-2	4
> Cc1ccc(S(=O)(=O)N2CCN(C(=O)COC(=O)/C=C/c3cccc(Cl)c3)CC2)c(C)c1
 : -5	·	·	·	·	·	·	4
> CC(C)(C)c1ccc(C(=O)NCCC(=O)NNC(=O)COc2ccc(F)cc2)cc1
 : -13	·	1	5	2	·	·	-5
> O=C(O)c1cc(-c2ccc(Cl)c(Cl)c2)n(-c2ccc(F)cc2)n1
 : -11	-1	5	-1	1	-7	-1	18
> Cc1cc(C)n2cc(CSc3ncn[nH]3)nc2n1
 : 6	4	-1	9	-1	-2	2	8
> Cc1ccc(S(=O)(=O)N(C)CC(=O)OCC(=O)N2CC(=O)Nc3ccccc32)cc1
 : 3	2	4	16	5	1	1	10
> O=C(CN1CCCC1c1cccs1)N1CCN(S(=O)(=O)c2ccccc2)CC1 (stereo unspecified)
 : 1	·	·	·	·	·	·	1

Laid out differently: two of the compounds above
O=C(COC(=O)CSc1ccc(Cl)cc1)Nc1ccccc1
  PAFAH2 inh = 3 | LYPLA2 inh = 1 | pPAFAH FP inh = 14 | PREPL inhibitor = 0 | PAD4 FP inh = -4 | GSTO1 inh = · | LYPLA1 counter = 0 | PAFAH1B3 inh = -1

COc1ccc(CNC(=O)C2(c3ccc(Cl)cc3)CC2)cc1
  PAFAH2 inh = -12 | LYPLA2 inh = -3 | pPAFAH FP inh = 2 | PREPL inhibitor = -17 | PAD4 FP inh = -8 | GSTO1 inh = 11 | LYPLA1 counter = -1 | PAFAH1B3 inh = -1

The list continues:
Below each compound – PAFAH2 inh	LYPLA2 inh	pPAFAH FP inh	PREPL inhibitor	PAD4 FP inh	GSTO1 inh	LYPLA1 counter	PAFAH1B3 inh
> Cc1ccc(S(=O)(=O)N2[C@@H](c3ccc(Br)cc3)C(C(=O)O)=CC[C@H]2c2cccc(C)c2)cc1
 : 3	·	2	-1	-3	·	·	5
> O=C(COC(=O)Cc1c(Cl)cccc1Cl)NCc1ccco1
 : 13	·	8	7	0	·	·	10
> Cc1ccccc1C(=O)OCC(=O)NCc1ccco1
 : 15	·	9	3	-5	·	·	9
> O=C(CN1C(=O)C(=O)N(CCC2=CCCCC2)C1=O)c1c[nH]c2ccccc12
 : -2	·	1	20	-9	·	·	-1
> N#Cc1c(NC(=O)CSc2nc(-c3ccccc3)cc(C(F)(F)F)n2)sc2c1CCC2
 : 2	3	7	3	0	-5	0	-3
> O=S(=O)(NCc1ccc(Cl)cc1Cl)c1cccs1
 : 4	2	2	-58	-3	3	0	4
> CC(=O)Nc1ccc(S(=O)(=O)Oc2cccc(/C=N/N=C3/NC(=O)C(CC(=O)O)S3)c2)cc1 (stereo unspecified)
 : 4	-4	-1	-4	1	-16	-1	-3
> Cc1c(C(=O)O)oc2ccc(S(=O)(=O)N3CC(C)CC(C)C3)cc12 (stereo unspecified)
 : 6	4	3	-9	2	1	6	14
> O=C(CS(=O)(=O)c1cn(Cc2ccc(Cl)cc2)c2ccccc12)N1CCOCC1
 : 3	5	-3	5	-2	1	1	4
> CCC(C)[C@H](NC(=O)NCc1ccc(Cl)cc1)C(=O)O (stereo partly specified)
 : 8	2	2	3	4	0	2	1
> O=C(c1cc(=O)[nH]c2ccccc12)N1CCN(S(=O)(=O)c2ccc(Cl)cc2)CC1
 : -8	-1	3	9	0	·	-2	7
> O=c1nc(SCc2ccc(Cl)cc2)nc(-c2ccccc2)[nH]1
 : -4	3	1	-8	4	-16	1	8
> O=C(Nc1nnc(SCc2ccc(Cl)cc2)s1)c1cnccn1
 : 2	-7	7	1	0	-12	-4	-3
> Cc1ccc(SC(C)c2nc(-c3ccncc3)no2)cc1 (stereo unspecified)
 : -1	14	4	1	4	7	4	-7
> Cc1ccc([C@@H]2CC=C(C(=O)O)[C@H](c3ccc(Br)cc3)N2S(=O)(=O)c2ccc(C)cc2)cc1
 : -4	·	15	15	-1	·	·	10

Reprinted from the part before: two compounds, followed by the next part.
Below each compound – PAFAH2 inh	LYPLA2 inh	pPAFAH FP inh	PREPL inhibitor	PAD4 FP inh	GSTO1 inh	LYPLA1 counter	PAFAH1B3 inh
> Cc1ccc(SC(C)c2nc(-c3ccncc3)no2)cc1 (stereo unspecified)
 : -1	14	4	1	4	7	4	-7
> Cc1ccc([C@@H]2CC=C(C(=O)O)[C@H](c3ccc(Br)cc3)N2S(=O)(=O)c2ccc(C)cc2)cc1
 : -4	·	15	15	-1	·	·	10
> O=C(CSc1ccc(Br)cc1)Nc1ccccc1N1CCOCC1
 : -3	15	1	11	-2	-6	3	1
> N#CCCN(C(=O)CN1CCN(S(=O)(=O)c2ccc(Cl)s2)CC1)c1ccc(F)cc1
 : 9	·	8	32	0	·	·	4
> O=C(O)c1ccc(N/C(=N\S(=O)(=O)c2ccc(Cl)cc2)c2ccccc2)cc1
 : 2	0	-5	12	-3	-1	-1	3
> O=C(Cc1ccc(Cl)cc1)NCCc1c[nH]c2ccccc12
 : 0	1	6	-2	3	9	1	4
> CC(OCC(O)CN(C)CCOc1ccccc1)c1ccc(Cl)cc1 (stereo unspecified)
 : 7	0	3	-25	1	2	-1	3
> O=C(CSc1ccccn1)N1CCN(S(=O)(=O)c2ccc(Cl)cc2)CC1
 : 0	10	-3	-2	6	14	0	5
> CC(C)n1c(CSCc2ccc(Cl)cc2Cl)n[nH]c1=S
 : 14	-9	2	-7	-3	-2	-4	-4
> O=C(CCN1C(=O)c2ccccc2C1=O)OCn1nnc2ccccc2c1=O
 : 11	1	9	-10	3	1	2	2
> COc1ccc(C(=O)NCc2ccc3c(c2)OCO3)cc1S(=O)(=O)NCc1ccc(Cl)cc1
 : -10	3	2	8	4	2	-3	0
> Cc1cnc(C(=O)Oc2ccc(-c3ccccc3)cc2)cn1
 : 12	3	2	19	1	9	2	-1
> CC(NC(=O)OC(C)(C)C)C(=O)Oc1cc2oc(=O)cc(-c3ccccc3)c2cc1Cl (stereo unspecified)
 : 2	2	-3	0	-1	1	0	8
> CC1CCCCC1NCC#CCOc1ccc(Cl)cc1 (stereo unspecified)
 : 2	9	5	18	-1	8	2	10
> O=C(O)c1cc(-c2ccc(Cl)cc2)n(-c2ccc(F)cc2)n1
 : -5	-3	5	4	0	-2	3	11
> Cc1ccc(S(=O)(=O)N2[C@@H](c3cccc(Cl)c3)C(C(=O)O)=CC[C@H]2c2ccc(C(C)C)cc2)cc1
 : -6	-3	15	1	-3	-66	-4	-2

From PubChem BioAssay
